ClpP mod – qHTS Assay for Activators of ClpP; ATP-dependent Clp protease proteolytic subunit (Bacillus subtilis (strain 168)), P80244; purified B. subtilis ClpP, FRET peptide cleavage, 20 min; Potency, µM (highest dose often 57.5 µM), without a hit: at the top dose activity change, negative = active; 340,000 compounds, 1.9% hits; AID 651965, 2013; active = well fitted falling curve with a large enough effect; inconclusive = small, poorly fitted or top-dose-only effect; inactive = no such curve, though single readings can be large or run the other way; further: potency means the concentration at half of the fitted maximal effect; the source files actives as falling curves though it sought activators and does not explain the sign; nearly all actives have a fitted effect of over 65% in size; many hits overshoot -100%
Target sequence (P80244 whole entry, looked up): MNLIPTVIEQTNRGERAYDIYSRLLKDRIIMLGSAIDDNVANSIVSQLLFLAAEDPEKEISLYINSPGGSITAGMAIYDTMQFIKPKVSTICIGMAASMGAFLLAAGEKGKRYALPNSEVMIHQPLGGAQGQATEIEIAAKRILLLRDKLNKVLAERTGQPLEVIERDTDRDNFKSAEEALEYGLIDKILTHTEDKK
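Purified B. subtilis ClpP, 10 microg/mL final in Tris/HCl pH8 with KCl, BSA, glycerol and Tween-20, cleaved an Abz/nitrotyrosine-quenched decapeptide. Fluorescence (ex 320, em 430) was read at 0 and 20 min at room temperature. Delta was normalized to 5.8 microM ADEP and DMSO/no-enzyme controls.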
TRPML1 agonist – activates the human TRPML1 channel; Q9GZU1; TRPML1-expressing cells, Ca2+ dye fluorescence, FDSS; host cell line not named in the record; reference of the full effect not given here; activation, % (no concentration beside the values); 410,000 compounds, 0.12% hits; AID 624414; in the data active = activation above about 50%; inconclusive = about 30% to 50%; inactive = below about 30%; further: 0% is about no effect; the text of the record puts the active cut at 80%
Target sequence (Q9GZU1 whole entry, looked up): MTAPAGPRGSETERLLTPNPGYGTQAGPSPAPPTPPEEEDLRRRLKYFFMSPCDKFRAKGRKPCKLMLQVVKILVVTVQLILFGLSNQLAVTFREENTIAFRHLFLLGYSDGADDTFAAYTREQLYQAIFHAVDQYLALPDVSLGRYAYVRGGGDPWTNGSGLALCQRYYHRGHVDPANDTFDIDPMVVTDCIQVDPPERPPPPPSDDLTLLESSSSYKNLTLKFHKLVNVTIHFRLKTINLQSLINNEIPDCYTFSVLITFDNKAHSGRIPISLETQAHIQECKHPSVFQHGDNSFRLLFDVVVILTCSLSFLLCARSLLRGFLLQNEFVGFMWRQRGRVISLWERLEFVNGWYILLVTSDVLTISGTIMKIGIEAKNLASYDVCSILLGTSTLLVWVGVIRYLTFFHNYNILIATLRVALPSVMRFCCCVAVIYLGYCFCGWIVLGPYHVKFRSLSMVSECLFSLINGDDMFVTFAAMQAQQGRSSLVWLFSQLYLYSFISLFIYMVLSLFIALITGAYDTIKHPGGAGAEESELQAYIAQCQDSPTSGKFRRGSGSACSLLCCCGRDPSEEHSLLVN
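In this qHTS format, compounds were pin-transferred onto Ca8-dye-loaded TRPML1-DL cells induced with Tet overnight, and intracellular Ca2+ fluorescence was recorded kinetically for 110 s after a 10 s baseline. A subsequent 4uM final 54-4 (EC80) addition followed by a second 110 s read served as the antagonist phase.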
TRPML1 inh – blocks the human TRPML1 channel; 390,000 compounds, 0.02% hits; Q9GZU1; TRPML1-inducible cells, Ca2+ dye fluorescence, FDSS; stronger effect = lower value; inhibition of EC80 agonist-evoked calcium signal; activity change, negative = inhibition, % (test concentration not listed); in the data active means activity change below about -50%; inconclusive means about -30% to -50%; inactive means above about -30%;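 further: stimulus is agonist 54-4 at its EC80 concentration; on the % scale 0 is the no-effect control and ±100 the full control effect; compound concentration not given in the record; the text of the record puts the active cut at -80%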
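Calcium fluorescence in TRPML1-DL cells induced overnight with Tet: a 110 s read after compound pin addition, then a 110 s antagonist read after challenge with 54-4 at 4 uM final (EC80).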
Menin-MLL FL inh – inhibitors of human menin-MLL interaction, wild-type MLL peptide. Fluorescence polarization, fluorescein-MLL peptide displacement from menin. AID 1766. FP activity change, % at 61.4 µM. 290,000 tested, under 10 active; inconclusive = falling polarisation curve, or a change in total fluorescence; inactive = total fluorescence flat and polarisation flat or rising; no compound was filed as active; the % refers to the polarisation; negative = inhibition;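 further: % of control where 0% means no effect; inhibitors lower the polarisation; unlabelled MLL peptide was the positive control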
PINK1 modulator – PINK1 expression modulation. PINK1 immunofluorescence, high-content cytometry, 24 h. Potency, µM (highest dose often 76.6 µM), inactives show at the highest dose activation (PINK1 increase), actives largely listed as activators. 410,000 compounds, 0.2% hits; active = well fitted activation curve with a large enough effect; inconclusive = small, poorly fitted or top-dose-only effect; inactive = flat fitted curve, though single readings scatter; cell line not stated here;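 further: potency means the concentration at half of the fitted maximal effect; % of control where 0% means no effect; nearly all actives have a fitted effect of over 65% in size; a mitochondrial uncoupler was the plate control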
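Fluorescence from anti-PINK1 antibody, together with nuclear and cell stains, was scanned on a laser-scanning cytometer. Before staining, stable-line cells were incubated 24 hours with compounds at 5 concentrations; primary antibody 12 h at 10 degrees C.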
Sfp inh – blocks B. subtilis Sfp PPTase activity. Q9F4F7. Biochemical Sfp PPTase activity, qHTS. Potency, µM, without a hit: max response, negative = inhibition, hits mostly inhibitors. 310,000 compounds, 3.5% hits. AID 1490; active means well fitted inhibition curve with a large enough effect; inconclusive means small, poorly fitted or top-dose-only effect, or another doubt; inactive means no such curve, though single readings can be large or run the other way;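 further: the enzyme is Sfp with the accession as filed and its product quenches rhodamine fluorescence; potency means the concentration at half of the fitted maximal effect; 0% = enzyme reaction without inhibitor and -100% = no enzyme wells; top concentration of the series not given in the record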
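After 15 min at room temperature with compound, 15 nM Sfp received 5 uM rhodamine-CoA plus 12.5 uM BHQ-2-ybbR (50 mM Hepes pH 7.6, 10 mM MgCl2). Rate came from the fluorescence difference over 30 min, ex 525/em 598 nm.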
TRPV1 PAM – enhances activation of the human vanilloid receptor TRPV1 | Q8NER1 | AID 540277 | 320,000 compounds, 0.02% hits | potentiation, % at 8.33 µM | TRPV1-expressing cells, Fluo-8 calcium influx, capsaicin EC20 potentiation; host cell line not named in the record; control for the full effect not named in the record; active means potentiation above 80%; inconclusive means 30% to 80%; inactive means below 30%; further: 0% is about no effect
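Cells expressing TRPV1 were dye-loaded with Fluo-8 and read kinetically: 10 s baseline, 3 min after compound (agonist portion), then 2 min after EC20 capsaicin (allosteric enhancer portion). Calcium-bound dye fluorescence at 480/520 nm.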
The depositor's hits bear a star; ? = inconclusive; / = no result given; [ ] = remark or other dose.

SMILES	ClpP mod	TRPML1 agonist	TRPML1 inh	Menin-MLL FL inh	PINK1 modulator	Sfp inh	TRPV1 PAM
O=C(N/N=C/c1cccc([N+](=O)[O-])c1)c1cc(-c2ccccc2)nc2ccccc12	-2.6%	-0.4	-4.1	3.7	6.7%	2.9%	?
COc1ccc(NC(=O)c2cc(-c3ccccn3)nc3ccccc23)cc1S(=O)(=O)N(C)C	?	1.1	6.4	/	-0.6%	/	-5.9
CCCN1C(=O)c2ccc(C(=O)Nc3cc(C)on3)cc2C1=O	-2.6%	1.7	-13.3	-2.3	-0.6%	16.0%	0.3
Cc1cc2c(c(=O)n1Cc1ccco1)C(c1ccccc1)C(C#N)=C(N)O2 (configuration not stated)	0.6%	-0.5	-1.4	5.4	8.3%[38.3 µM]	14.7%	5.5
COc1ccccc1CNC(=O)C[n+]1ccccc1	-0.1%	0.8	-23.2	2.7	1.4%	13.2%	4.5
COC(=O)Nc1nc(-c2ccc(F)cc2)c(C)s1	-2.8%	1.4	19.5	-0.6	3.2%	17.9%	9.9
COc1ccc(C(=O)c2sc3nc(-c4ccc(C)cc4)cc(C(F)(F)F)c3c2N)cc1	?	12.1	32.4	/	1.9%	/	-3.2
CN(CCc1ccccn1)C(=O)Nc1ccc(C(C)(C)C)cc1	28.2µM*	0.9	0.7	2.7	0.8%	3.6%	-10.6
Clc1ccccc1-c1nnc(-c2ccc3c(c2)OCO3)o1	/	0.2	13.8	-0.6	2.2%	-2.8%	-3.9
NC(N)=NCc1cccc(I)c1	1.1%	-0.4	3.3	-4.1	0.4%	12.4%	-8.4
CC(C)Cn1c(N)c(C=O)c(=O)[nH]c1=O	/	-0.2	4.0	0.4	2.5%	7.1%	-13.5
O=C(CCCN1C(=O)/C(=C/c2ccccc2Cl)SC1=S)NNC(=O)c1cccnc1	-3.7%	0.9	20.9	-1.7	0.9%	-2.9%	-2.4
Cc1ccc(CNC(=O)C(=O)c2cn(CC(=O)N3CCOCC3)c3ccccc23)cc1	0.1%	0.7	3.0	/	-0.2%	6.6%	4.7
COc1ccc(NC(=O)N(C)C[C@H]2Oc3c(NS(=O)(=O)c4cccs4)cccc3C(=O)N([C@@H](C)CO)C[C@@H]2C)cc1	0.3%	0.1	-10.6	/	0.1%	/	/
COc1cccc(C(=O)Nc2cccc(C(=O)OCc3cc(=O)n4c(C)csc4n3)c2)c1	2.4%	1.1	1.1	/	0.0%	/	/

Further compounds:
SMILES	ClpP mod	TRPML1 agonist	TRPML1 inh	Menin-MLL FL inh	PINK1 modulator	Sfp inh	TRPV1 PAM
CCOC(=O)C1=C(COC(=O)c2ccc(Cl)nc2)NC(=O)NC1C (configuration not stated)	/	1.5	-22.6	/	6.2%	/	/
Cc1ccccc1N1CCN(C(=O)c2ccc(Oc3ccc(C(F)(F)F)cn3)cc2)CC1	-0.8%	0.4	15.2	2.7	7.8%[38.3 µM]	-2.6%	-6.2
O=C(COC(=O)C1CC2CCCC(C1)C2=O)Nc1cccc(F)c1 (configuration not stated)	-1.9%	0.6	-3.4	/	-1.9%	/	-5.7
OCCN1CCN(CCOc2ccccc2-c2ccccc2)CC1	-7.4%	0.8	-4.6	-2.0	1.1%	-10.0%	-2.0
Cc1ccc(C(=O)N/C(=C/c2ccccc2)C(=O)NCC2CCCO2)cc1 (configuration not stated)	/	0.2	-16.9	-1.7	-0.5%	-8.1%	-3.2
Cc1cc(OC(C)C(=O)NC2CCN(Cc3ccccc3)CC2)c2c(C)cc(=O)oc2c1 (configuration not stated)	-0.9%	0.6	-0.6	/	0.5%	14.0%	-20.5
CCc1nc2c(OCc3cccc(Cl)c3)cccn2c1N(C)C(=O)c1ccco1	0.8%	-1.1	/	/	2.5%	/	/
O=C1NC[C@@H](CCCCN2CCN(CC3CCCCC3)C(=O)C2=O)N(CCC2CCCCC2)C1=O	1.0%	-0.6	/	/	-0.5%	/	/
COc1ccc(NS(=O)(=O)c2ccc(C)c(C(=O)N(C)Cc3ccc(OC)cc3OC)c2)cc1	0.7%	-0.1	7.9	/	3.5%	/	-12.5
O=C(Cn1nnc(-c2ccccc2NC(=O)c2ccco2)n1)NC1CCCCC1	-13.6%	3.2	16.0	3.0	0.7%[38.3 µM]	?	-7.6
CCOC(=O)C1=NNC2(CC(=O)N(c3cc(C)cc(C)c3)C2=O)C1 (configuration not stated)	/	0.0	-15.6	0.1	2.8%	2.1%	16.6
Cc1ccc(C)c(NC(=O)COC(=O)c2cccc3c2C(=O)c2ccccc2C3=O)c1	2.4%	3.1	3.5	3.8	0.3%	-0.3%	1.2
C=CCc1ccc(OCCCNCc2ccccc2)c(OC)c1	0.5%	/	/	-1.1	7.3%	-10.9%	17.8
O=C(O)/C=C\C(=O)Nc1ccc(N2CCN(c3ccc(Cl)c(Cl)c3)CC2)cc1	/	0.3	-3.3	-1.2	3.1%	-20.6%	-8.9
CN1CCN(c2ccc(Cl)cc2NC(=O)c2ccc(S(=O)(=O)N3CCCCCC3)cc2)CC1	-0.9%	0.2	17.2	5.3	-1.9%	?	-4.0

More results.
SMILES	ClpP mod	TRPML1 agonist	TRPML1 inh	Menin-MLL FL inh	PINK1 modulator	Sfp inh	TRPV1 PAM
N#Cc1ccc(OCC(=O)N/N=C(\CCC(=O)O)c2cccs2)cc1	-0.7%	0.3	-6.4	-0.5	-0.8%	14.2%	-0.2
CCc1nn(Cc2cc(C)ccc2C)c(=O)c2cc3cc(C)ccc3n12	-3.7%	0.8	-2.5	/	-0.6%	/	/
O=C(CSc1nnc(Cc2ccccc2)o1)NC1CC2CCC1C2 (configuration not stated)	-0.2%	3.7	-2.2	1.9	-0.4%	2.1%	?
Cc1cccc2sc(NS(=O)(=O)c3ccccc3)nc12	-0.2%	-0.1	5.5	/	-0.8%	3.4%	22.4
O=C(CC1C(=O)NCCN1CC1CCCCC1)NCc1ccccc1Cl (configuration not stated)	/	-1.0	-0.2	8.8	-0.9%	4.2%	-4.3
O=C(Nc1ccccc1)c1cccc(Cn2cc(C(F)(F)F)ccc2=O)c1	-0.9%	-0.7	24.7	0.3	-1.6%	10.0%	10.3
O=C(Oc1ccccc1)c1cccc(N2C(=O)CCC2=O)c1	0.2%	0.3	12.9	-0.9	/	9.5%	-1.9
Cc1ccc(S(=O)(=O)NCC(c2ccccc2)N2CCN(c3ccc(F)cc3)CC2)cc1 (configuration not stated)	-9.8%	1.8	-4.2	3.0	0.1%	13.7%	0.1
CCOC(=O)N1CCc2c(sc3c2c(=O)n(Cc2ccccc2)c(=O)n3CC(=O)Nc2ccc(C)c(C)c2)C1	-5.0%	1.0	1.1	/	0.5%	/	/
COc1ccc2c(c1)OC[C@H]1[C@H]2N2C(=O)c3cc(F)ccc3NC(=O)[C@@]2(C)[C@H]1c1ccccc1	-7.5%	1.3	1.8	/	5.7%	/	/
CN(C)C(=O)c1ccc(-c2cc(C(F)(F)F)nn2C)s1	/	-0.2	-5.1	6.0	-1.4%	10.5%	-14.8
O=S(=O)(c1ccc2ccccc2c1)N1CCc2ccccc21	0.7%	-0.6	-16.8	2.4	3.4%	-9.8%	-0.8
Cc1ccc(/C=C/c2ccc(=O)n(Cc3ccc(Cl)cc3Cl)n2)cc1	3.16µM*	1.6	-29.7	-1.9	10.5%	22.0%	4.0
C=CCNC(=O)c1ccccc1NC(=O)C1COc2ccccc2O1 (configuration not stated)	/	0.1	3.5	?	8.3%	2.3%	1.6
O=C(NCc1ccccc1)c1cc(C2CCCN(C(=O)C3CC3)C2)on1 (configuration not stated)	-0.5%	-0.6	/	/	0.3%	/	/

(next part)
SMILES	ClpP mod	TRPML1 agonist	TRPML1 inh	Menin-MLL FL inh	PINK1 modulator	Sfp inh	TRPV1 PAM
COc1ccc(NC(=O)CSc2nn3c(=O)c(C)nnc3s2)cc1	1.0%	-0.6	11.5	-5.2	1.8%	8.3%	?
CCCC12CN3CC(C)(CN(C1)C31CCCCC1)C2=O	-4.6%	1.6	10.4	-3.0	-0.2%	1.1%	?
C[C@@H](NC(=O)Cn1cnc2c(NCc3ccccc3)ncnc21)c1cccc2ccccc12	-1.1%	-1.3	8.5	/	6.0%	/	/
CCCn1c(Cc2ccccc2)nnc1SCC(=O)N1CCOCC1	-0.7%	0.8	-8.2	0.0	1.7%	7.5%	-9.8
N#CCCn1c(=O)c(-c2cccs2)nc2cnc(N3CCNCC3)nc21	/	/	/	?	5.7%	-8.1%	/
O=C(C1CC(=O)N(c2ccc(Cl)cc2)C1)N1CCN(Cc2ccc3c(c2)OCO3)CC1 (configuration not stated)	/	1.3	-14.7	/	-2.5%	4.5%	0.6
CCOC(=O)c1sc(N2C(=O)C(O)=C(C(=O)c3ccco3)C2c2ccco2)nc1C (configuration not stated)	/	2.8	7.1	12.6	-0.2%	-19.3%	4.7
O=C(NCCc1cccs1)c1ccc(Cl)cc1	-0.3%	-0.6	17.6	3.8	2.0%	14.8%	-6.3
CCC(C)(C)NC(=O)C(c1cccc(OC)c1OC)N(CCOC)C(=O)CCC(=O)Nc1cc(C)on1 (configuration not stated)	/	0.1	-7.4	/	-1.6%	0.5%	1.5
C=CCn1c(SCC(=O)Nc2ccccc2OC)nnc1-c1ccccn1	-3.7%	2.1	20.9	2.9	0.4%	-1.0%	-23.6
NC(=O)c1cccn(Cc2ccc(C(F)(F)F)cc2)c1=O	/	-0.5	-5.0	-0.2	1.1%	-0.9%	1.0
CCc1ccc2c(c1)c(N=NC1=NC(=O)CS1)c(O)n2C	0.0%	-1.8	6.1	-2.6	-1.4%	-24.5%	-3.0
Cc1cccc(Cc2c(C)nc3nc(SCc4cccc(F)c4)nn3c2C)c1	?	2.8	20.1	/	-1.1%	/	/
O=C(CSc1ncn[nH]1)Nc1cccc2ccccc12	-1.2%	-1.0	-7.0	?	-0.9%	13.3%	5.1

Source: PubChem BioAssay
